# Screening data as filed in PubChem BioAssay.
# PERK inhibitor: blocks human PERK kinase; Q9NZJ5; CHO PERK-DD fusion, SEAP luminescence translation reporter; inhibition, % at 5.6 µM; 220,000 tested, 0.17% active;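 active = inhibition above the mean inhibition of all tested compounds plus 3 SD, set separately per screening campaign, cut at about 2.9% in these data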;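 also: PERK kinase domain activated by AP20187 dimerizer at 100 nM; 0% = DMSO with dimerizer and 100% = rapamycin at 8.4 µM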
# p97 ATPase inh: inhibitors of human p97 ATPase. P55072. recombinant p97 ATPase, Kinase-Glo ATP luminescence, 3 h. inhibition, % at 8 µM. 220,000 tested, 0.42% active. AID 1481; in the data active = inhibition above about 15%;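 also: 0% = DMSO vehicle and 100% = wells lacking enzyme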
# Furin inh: inhibitors of human furin; AID 463115; inhibition, % at 30 µM; purified furin, fluorogenic substrate cleavage; 220,000 tested, 0.061% active; in the data active = inhibition above about 25%; also: inactives centre near -15
# Target sequence (P09958 108-714 limits assumed): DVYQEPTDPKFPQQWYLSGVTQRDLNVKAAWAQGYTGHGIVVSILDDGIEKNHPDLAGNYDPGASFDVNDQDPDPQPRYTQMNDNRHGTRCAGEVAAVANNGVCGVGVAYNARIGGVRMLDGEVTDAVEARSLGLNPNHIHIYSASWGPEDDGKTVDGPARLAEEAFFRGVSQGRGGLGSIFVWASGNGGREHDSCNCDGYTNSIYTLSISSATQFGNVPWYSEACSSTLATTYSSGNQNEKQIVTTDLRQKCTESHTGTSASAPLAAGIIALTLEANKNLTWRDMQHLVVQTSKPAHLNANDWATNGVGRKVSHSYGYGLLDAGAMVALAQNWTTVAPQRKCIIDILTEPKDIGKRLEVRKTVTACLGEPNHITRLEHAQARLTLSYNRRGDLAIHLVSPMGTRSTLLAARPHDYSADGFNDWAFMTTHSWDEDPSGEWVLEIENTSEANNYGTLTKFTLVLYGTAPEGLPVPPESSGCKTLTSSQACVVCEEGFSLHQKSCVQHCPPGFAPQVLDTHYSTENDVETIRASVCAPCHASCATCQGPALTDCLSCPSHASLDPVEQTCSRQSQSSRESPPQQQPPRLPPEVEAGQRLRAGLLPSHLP
# Cl transport mod: modulates chloride dependent transport by human KCC2 | KCC2 cells, thallium flux FluoZin-2 fluorescence | B-score of Tl+ flux slope (higher = more flux/activation; lower = inhibition) at 10 µM | Q9H2X9 | 190,000 tested, 2.2% active;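 active = thallium flux slope and its plate-corrected score both differing from the plate sample mean at a set confidence after two filtering rounds, in either direction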;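 also: slope of fluorescence scaled to starting intensity during 10 to 20 s after thallium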
# Wee1 stabilizer: inhibitors of human Wee1 degradation | P30291 | HeLa Luc-Wee1K328M stability, luciferase luminescence; 100% = proteasome inhibitor MG132 effect | reporter increase, % at 5 µM | 220,000 tested, 1.2% active;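 active = activation above the mean of all tested compounds plus 3 SD, set per screening run, cut at about 8.8% in these data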;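 also: cells exposed to compound for 20 h before luminescence read; 0% = DMSO alone and 100% = MG132 at 30 µM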
# * marks the source's active call; other numbers are inactive results; . = no result given; & = joins results of further samples; ! = repeats disagree; [ ] = another dose, or the depositor's remark.
no.	SMILES	PERK inhibitor	p97 ATPase inh	Furin inh
1	Nc1nc(-c2cccnc2)nn1C(=O)c1ccc(F)cc1	2.7	0	-27
2	CN(C)CC/C=C1\c2ccccc2Sc2ccc(Cl)cc21	-1.3	2	-7
3	Nc1nc(-c2ccco2)nn1C(=O)c1ccc(Cl)cc1	0.8	0	-16[20 µM]
4	CN1CCC(OC(c2ccccc2)c2ccccc2)CC1	-0.6	7	-6
5	CCCCOc1ccc(OCCCN2CCOCC2)cc1	-0.8	-6	-3
6	CSc1nc(-c2ccccc2)nn1C(=O)c1ccccc1	0.9	2	-16[20 µM]
7	C/C(=N/NC(=O)CNC(=O)Cc1ccccc1)c1ccc(Cl)cc1	-1.1	-7	-7
8	CN(C)CC/C=C1/c2ccccc2COc2ccccc21	0.3	-2	.

no.	Cl transport mod	Wee1 stabilizer
1	-0.41	3
2	0.32	-1
3	0.16	-2
4	4.7*	0
5	1.5	-2
6	0.041	-1
7	-0.12	-1
8	-0.13	0

# Compound profiles (already shown).
# CN(C)CC/C=C1/c2ccccc2COc2ccccc21 across the screens: PERK inhibitor: 0.3; p97 ATPase inh: -2; Furin inh: .; Cl transport mod: -0.13; Wee1 stabilizer: 0
# CCCCOc1ccc(OCCCN2CCOCC2)cc1 across the screens: PERK inhibitor: -0.8; p97 ATPase inh: -6; Furin inh: -3; Cl transport mod: 1.5; Wee1 stabilizer: -2

# Continuation:
no.	SMILES	PERK inhibitor	p97 ATPase inh	Furin inh
9	Nc1nc(-c2cccnc2)nn1C(=O)c1ccc(Cl)cc1	1.0	-4	-21
10	O=C(c1ccco1)n1nc(-c2ccccc2)nc1SCc1ccccc1	0.5	2	-17[20 µM]
11	CN(C)CCC(c1ccc(Br)cc1)c1ccccn1 (configuration not stated)	-0.9	7	-14
12	COc1cccc(C(=O)n2c(SC)nc3cc4c(cc32)OCCO4)c1	0.2	-1	-14[20 µM]
13	CN1CCN(CC(=O)N2c3ccccc3C(=O)Nc3cccnc32)CC1	1.1	7	-13
14	COC(=O)CCC(=O)CN	0.9	4	-4
15	CCCC(=O)n1nc(-c2cccnc2)nc1N	0.6	4	-15[20 µM]
16	O=C(Nc1nc2cc3c(cc2s1)OCO3)c1ccco1	0.2	-12	-20

no.	Cl transport mod	Wee1 stabilizer
9	-0.049	3
10	-0.31	4
11	-0.011	-1
12	0.006	0
13	0.27	-3
14	0.5	-3
15	-0.014	-2
16	0.78	-3

# Further structures follow.
no.	SMILES	PERK inhibitor	p97 ATPase inh	Furin inh
17	Oc1c(Cl)cc(Cl)cc1Sc1cc(Cl)cc(Cl)c1O	0.8	-13	-11
18	COC(=O)c1nc(NC(=O)c2ccc(Br)cc2)n[nH]1	0.7	-2	-7[20 µM]
19	CCCC(=O)Nc1ncnc2c1ncn2[C@@H]1O[C@@H]2COP(=O)(O)O[C@H]2[C@H]1OC(=O)CCC	0.3	-1	-8
20	Cc1ccc(S(=O)(=O)n2nc(OC(=O)c3cccs3)cc2N)cc1	1.1	6	-26
21	Nc1nc(-c2ccc(Cl)cc2)nn1C(=O)c1cccnc1	-0.2	-2	-22[20 µM]
22	COc1cc2nc(COc3ccccc3[N+](=O)[O-])oc(=O)c2cc1OC	0.0	6	-22
23	Cc1ccc(-c2nc(N)n(C(=O)Cc3ccccc3)n2)cc1	-0.1	1	-20[20 µM]
24	CC(C)Oc1ccc2c(=O)c(-c3ccccc3)coc2c1	0.2&0.9	0&2	0

no.	Cl transport mod	Wee1 stabilizer
17	37*	-3
18	-0.41	-2
19	-0.87	1
20	0.8	-1
21	.	-3
22	-1.2	-1
23	0.26	-1
24	-3.6*!	2&5

# Ordered by molecular weight (largest number first): three of the compounds above.
no.	SMILES	PERK inhibitor	p97 ATPase inh	Furin inh
11	CN(C)CCC(c1ccc(Br)cc1)c1ccccn1 (configuration not stated)	-0.9	7	-14
6	CSc1nc(-c2ccccc2)nn1C(=O)c1ccccc1	0.9	2	-16[20 µM]
24	CC(C)Oc1ccc2c(=O)c(-c3ccccc3)coc2c1	0.2&0.9	0&2	0

no.	Cl transport mod	Wee1 stabilizer
11	-0.011	-1
6	0.041	-1
24	-3.6*!	2&5

# Next section.
no.	SMILES	PERK inhibitor	p97 ATPase inh	Furin inh
25	COc1ccc(Nc2nc(-c3ccccc3)c(C(=O)Nc3cccnc3)s2)cc1	0.2	-8	0
26	CCSc1ccccc1C(=O)n1nnc2ccccc21	0.4	1	-19[20 µM]
27	CC(C)NCC(O)c1cc(O)cc(O)c1 (configuration not stated)	.	.	-18
28	COc1ccccc1C(=O)n1nc(-c2ccco2)nc1SC	0.7	2	-21
29	CC1(C)SC2C(NC(=O)COc3ccccc3)C(=O)N2C1C(=O)O (configuration not stated)	-0.1	-4	-16
30	COc1ccc(C(=O)n2nc(-c3ccccc3)nc2SC)cc1	0.4	-1	-22[20 µM]
31	Nc1nc(-c2cccnc2)nn1C(=O)c1ccccc1Cl	0.5	2	-3

no.	Cl transport mod	Wee1 stabilizer
25	0.32	-2
26	-0.26	-1
27	-2.8*	.
28	-1.6	0
29	.	-1
30	0.027	-2
31	0.24	-1

# Entries above printed as active in Cl transport mod:
no.	SMILES	PERK inhibitor	p97 ATPase inh	Furin inh
4	CN1CCC(OC(c2ccccc2)c2ccccc2)CC1	-0.6	7	-6
17	Oc1c(Cl)cc(Cl)cc1Sc1cc(Cl)cc(Cl)c1O	0.8	-13	-11
24	CC(C)Oc1ccc2c(=O)c(-c3ccccc3)coc2c1	0.2&0.9	0&2	0
27	CC(C)NCC(O)c1cc(O)cc(O)c1 (configuration not stated)	.	.	-18

no.	Cl transport mod	Wee1 stabilizer
4	4.7*	0
17	37*	-3
24	-3.6*!	2&5
27	-2.8*	.

# These rows are one share of the data (hit frequency here may not be typical).
